VCAM-1 up: enhancers of VCAM-1 display on endothelial cells, cell-based, plate reader, pooled HUVEC, TNFa stimulus (AID 455); augmentation, % at 5 µM; 10,000 compounds, 0.2% hits; HUVEC TNFa-induced VCAM-1 immunofluorescence, plate reader; numbers were filed only for top-ranked candidate wells;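 active means a compound raising TNF-alpha-driven VCAM-1 surface staining, with its hit status upheld on visual or statistical review; inactive means the rest, including hits rejected on review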;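 further: 0% = TNFa with vehicle and 100% = strongest image-checked hit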
Proteasome disasm: blocks ATP-dependent breakdown of the yeast 26S proteasome; anti-FLAG beads, GFP-proteasome disassembly, flow cytometry; inhibition of disassembly, % (test concentration not listed); 24,000 compounds, 0.2% hits;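 active means above 40%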;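 further: plate controls were ATP control with full disassembly for no effect and ATP-gamma-S intact proteasomes for full effect; higher percent means more bead fluorescence retained so stronger block of disassembly; stock transfer was 100 nL into about 10 µL; wells with too few beads may also be inconclusive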
Active calls of the source: *; i = inactive; · = no result given. Not all compounds are listed, so the mix of outcomes need not match the whole.

The first two entries, to show the layout:
SMILES	VCAM-1 up	Proteasome disasm
CCOCCCNC(=O)C1CCC(CNS(=O)(=O)c2ccc(F)cc2)CC1 (stereo not given)	·	2.0
Cc1ccc(C(=O)N(Cc2nc(-c3ccc(C)cc3)no2)C(C)C)cc1	·	-0.3

The listing, from the first entry:
SMILES	VCAM-1 up	Proteasome disasm
CCOCCCNC(=O)C1CCC(CNS(=O)(=O)c2ccc(F)cc2)CC1 (stereo not given)	·	2.0
Cc1ccc(C(=O)N(Cc2nc(-c3ccc(C)cc3)no2)C(C)C)cc1	·	-0.3
Cc1ccccc1NC(=O)CSC(N)=O	·	1.7
Brc1ccc(-c2cn3cccnc3n2)cc1	i	0.8
CN1C(=O)c2ccccc2C(C(=O)NCCCN2CCCC2=O)C1c1c[nH]c2ccccc12 (stereo not given)	·	-0.7
C=C(c1ccc(O)cc1)c1ccc(O)cc1	i	-0.4
CCOc1ccccc1CN(Cc1ccco1)S(=O)(=O)c1ccc(-n2cnnn2)c(OC)c1	i	-1.4
O=c1cc(N2CCc3ccccc3C2)[nH]c(=O)n1-c1ccc(Cl)cc1	·	4.6
Cc1ccc(-c2cc(C(=O)NCCN3CCOCC3)no2)cc1	i	-1.8
COc1ccc(CNC(=O)CCCNS(=O)(=O)c2cccc3nonc23)cc1	·	0.1
CCOc1cc(C2CC(=O)N3CN(C4CCCCC4)CSC3=C2C#N)ccc1O (stereo not given)	i	-0.6
CCOC(=O)c1[nH]c(C)c(C(=O)Nc2ccc(C)cc2C)c1C	i	-1.5
Cc1cc(C)cc(-n2ccnc2SCC(=O)Nc2nccs2)c1	·	-0.4
Cc1ccc(S(=O)(=O)C2(C(=O)Nc3ccc4c(c3)OCO4)CC2)cc1	·	0.8
COC(=O)c1nnn(-c2nc(N3CCCCC3)nc(N3CCCCC3)n2)c1C	·	-0.2
O=C(CCCn1c(=S)[nH]c2ccc(Br)cc2c1=O)N1CCN(c2ccccn2)CC1	·	0.1
CCOC(=O)c1cc(C)n(S(=O)(=O)c2ccc(C)cc2)c1C	·	0.7
CCN(CC)S(=O)(=O)c1ccc(C(=O)N2CCN=C2SCc2cccnc2)cc1	i	-0.9
CCCCn1c(SCC(=O)Nc2cc(C)[nH]n2)nc2ccsc2c1=O	·	-1.4
O=C(C1CC1)N1CCc2cc(Br)cc(S(=O)(=O)NCC3COc4ccccc4O3)c21 (stereo not given)	·	-1.6
Cc1ccc(/C(O)=C2/C(=O)C(=O)N(Cc3ccco3)C2c2cccs2)cc1 (stereo not given)	i	-1.7
c1ccc(CN2CCN(c3nc4ccccc4n4cnnc34)CC2)cc1	·	1.3
O=C(c1cc(S(=O)(=O)N2CCOCC2)ccc1F)N1CCN(Cc2ccccc2)CC1	·	-1.5
CCOc1ccccc1NC(=O)CN(c1ccc(OC)cc1)S(=O)(=O)c1c(C)noc1C	·	-1.4
CCOC(=O)C(NC(C)=O)(Nc1ccc(S(=O)(=O)Nc2nccs2)cc1)C(F)(F)F (stereo not given)	·	-0.9
O=C1CCC(C(=O)N(c2ccccc2)C2(C(=O)NC3CCCCC3)CCCCC2)N1 (stereo not given)	·	-0.5
O=C(CCCn1c(=O)[nH]c2ccccc2c1=O)N1CCN(c2ccccn2)CC1	·	0.2
Cc1nnc(SCc2ccccc2)n1N	i	0.5
O=C1Nc2cc(C(=O)N3CCN(Cc4ccccc4)CC3)ccc2SC1N1CCOCC1 (stereo not given)	·	-0.1
Cc1oc(-c2cccs2)nc1CS(=O)CC(=O)NCCCOC(C)C (stereo not given)	·	1.4

6 compounds picked at random from those above:
SMILES	VCAM-1 up	Proteasome disasm
CCOC(=O)C(NC(C)=O)(Nc1ccc(S(=O)(=O)Nc2nccs2)cc1)C(F)(F)F (stereo not given)	·	-0.9
Cc1nnc(SCc2ccccc2)n1N	i	0.5
Cc1ccc(/C(O)=C2/C(=O)C(=O)N(Cc3ccco3)C2c2cccs2)cc1 (stereo not given)	i	-1.7
CCOc1ccccc1NC(=O)CN(c1ccc(OC)cc1)S(=O)(=O)c1c(C)noc1C	·	-1.4
O=C(c1cc(S(=O)(=O)N2CCOCC2)ccc1F)N1CCN(Cc2ccccc2)CC1	·	-1.5
O=C1Nc2cc(C(=O)N3CCN(Cc4ccccc4)CC3)ccc2SC1N1CCOCC1 (stereo not given)	·	-0.1

(listing goes on)
SMILES	VCAM-1 up	Proteasome disasm
Cc1ccc(CCN2CC(C(=O)NCc3ccco3)CC2=O)cc1 (stereo not given)	·	-1.6
COc1ccc(-c2cc(O)cc(O)c2)cc1	i	1.4
CCc1ccccc1NC(=O)CCc1nc(-c2ccc(C)cc2)no1	i	0.0
C=CCn1c(-c2ccoc2)n[nH]c1=S	·	-0.7
Cc1ccc(C)c(N2CCN(S(=O)(=O)c3ccc4c(c3)CCC(=O)N4)CC2)c1	·	-0.3
COc1cccc(-n2c(Cc3cc(=O)[nH]c(=O)[nH]3)nnc2SCC(=O)Nc2ccccc2)c1	·	-1.6
CCC(=O)c1ccc(OCC(O)CN2CCN(S(=O)(=O)N3CCCCC3)CC2)cc1 (stereo not given)	i	1.2
O=C(COC(=O)c1cnccn1)c1ccc(OC(=O)c2ccccc2)cc1	i	0.2
Cc1csc(NC(=O)c2cccs2)n1	i	9.8
COCCCNC(=O)Cn1ncc2ccsc2c1=O	·	1.9

Exported with two lines to a compound: entries from further up
The line under a structure holds: VCAM-1 up, Proteasome disasm
Cc1ccc(CCN2CC(C(=O)NCc3ccco3)CC2=O)cc1 (stereo not given)
  ·, -1.6
O=C(COC(=O)c1cnccn1)c1ccc(OC(=O)c2ccccc2)cc1
  i, 0.2
C=CCn1c(-c2ccoc2)n[nH]c1=S
  ·, -0.7
COCCCNC(=O)Cn1ncc2ccsc2c1=O
  ·, 1.9

Additional results follow.
SMILES	VCAM-1 up	Proteasome disasm
CSc1nc(N)nc(SCC(=O)c2ccccc2)c1C#N	·	-2.3
Cc1ccc(NC(=O)CCn2nc(C)cc2C)c(C)c1	·	0.0
CCOC(=O)c1nc(-c2ccc3c(c2)OCO3)[nH]c1C	·	-0.7
COc1ccc(N(CC(=O)Nc2ccc(OC)c(Cl)c2)S(=O)(=O)c2c(C)noc2C)cc1	·	0.8
O=C(CCNC(=O)Cn1cnc2ccccc2c1=O)NCCC1=CCCCC1	·	-1.1
CC1(C)OC(=O)N(Cc2ccco2)C1(C)O (stereo not given)	·	0.9
Cc1ccc(Cl)cc1N1CCN(C(=O)C2CCCN(S(=O)(=O)c3cnc[nH]3)C2)CC1 (stereo not given)	i	0.3
Cc1ccc2nc(C)cc(NCCO)c2c1	·	1.4
O=C(CCNS(=O)(=O)c1cccc2nsnc12)NCc1cccs1	i	-0.9
CCOC(=O)CN1CC23C=CC(O2)C(C(=O)NC2CCCC2)C3C1=O (stereo not given)	i	-0.5
CCOc1cc(-c2noc(N)c2C(=O)OC)cc(OCC)c1OCC	·	-1.9
COc1ccc(C2=NOC(C(=O)NC(C)C)C2)cc1 (stereo not given)	·	-0.3
COc1ccccc1CNC(=O)C1CCN(Cc2nc(-c3cccc(Cl)c3)oc2C)CC1	·	7.6
CCOC(=O)c1sc(NC(=O)c2noc3c2CCCC3)c(C(=O)OCC)c1C	i	-1.9
C/C=C/COC(=O)c1[nH]c2c(c1C)C(=O)CC(c1ccc(N(C)C)cc1)C2 (stereo not given)	i	-0.3
CC1(C)CC2(CCO1)OC(=O)CC2C(=O)NCc1ccccc1 (stereo not given)	·	0.3
CN(C)c1ccc(C=NCC2(O)CCOC(C)(C)C2)cc1 (stereo not given)	i	3.5
CN(CC(=O)NC1CCCCC1)S(=O)(=O)c1cccc2nsnc12	·	0.4
COc1ccc(OC)c(NC(=O)CN(c2ccc(C)cc2)S(=O)(=O)c2c(C)noc2C)c1	·	-3.0
O=C(COC(=O)C1CC(=O)N(c2ccccc2)C1)c1ccccc1 (stereo not given)	i	0.0
O=C(CN1CCN(C(=O)c2cccc(F)c2)CC1)Nc1ccccc1F	·	2.4
CCN(CC)Cc1c(C(=O)OC)nnn1-c1nonc1N	i	0.0
O=C(Cn1ncc2c(=O)oc3ccccc3c21)N1CCCN(Cc2ccccc2F)C1	·	-6.2
CC(=O)c1cc(F)c(N2CCN(C(=O)Cc3ccccc3)CC2)cc1C	i	3.2
O=C(CSc1nnc(CNC(=O)c2ccccc2F)o1)NCCc1ccccc1	·	0.9
O=C(NCCN1CCCC1)c1ccc(CS(=O)(=O)c2c(Cl)cccc2Cl)o1	·	1.0
O=C(CCc1ccccc1)Nc1ncn[nH]1	·	-1.2
Cc1cc(NC(=O)c2ccc(S(=O)(=O)N3CCCC3)cc2)nc2c1c(=O)oc1ccccc12	·	-1.2
Cc1cccc(CSC2=NCCN2C(=O)c2ccco2)c1	·	1.8
Cc1nc2ccccc2c(=O)n1NC(=O)c1c(O)c2c(n(CC(C)C)c1=O)CCCC2	i	-0.1
COC(=O)c1ccc2c(=O)n(Cc3ccco3)c(SCC(=O)Nc3ccc(C)c(Cl)c3)nc2c1	i	0.8
COc1ccc(-c2nnc(NC(=O)c3ccc(S(=O)(=O)N4CCc5ccccc5C4)cc3)o2)cc1	·	12.6
Nc1nonc1C(=O)NCCNCc1cc(Br)ccc1OCc1ccccc1F	i	1.6
CCOC(=O)c1ccccc1NC(=O)Cn1cnc2c(cnn2-c2ccccc2)c1=O	·	-0.8
Nc1c(Sc2ccccc2)c(=O)[nH]c(=O)n1Cc1ccccc1	i	-2.3
COc1ccccc1NC(=O)C1=C(C)Nc2ncnn2C1c1ccccc1C (stereo not given)	·	0.0
Cc1cc(NC(=O)COc2cccc(C)c2C)no1	i	1.8
CC1C2CC(C(S(=O)(=O)N3CCOCC3)C2=O)C1(C)C (stereo not given)	·	0.9
Cc1ccc(S(=O)(=O)NCCN=C(CN2CCOCC2)NS(=O)(=O)c2ccc(C)cc2)cc1	·	-4.4
Cc1nc2ccc(S(=O)(=O)NC(C(=O)N3CCn4c3nc3ccccc34)C(C)C)cc2s1 (stereo not given)	·	-0.2
Cc1nc2c3ccccc3n(CC#N)c(=O)n2n1	·	0.5
CCCCCCNS(=O)(=O)c1nc2nc(C)cc(C)n2n1	·	-1.1
O=C(c1cc(-c2ccco2)on1)N1CCN(c2ccccc2)CC1	·	-0.3
Cc1nc(CCNC(=O)c2cccs2)cs1	·	-2.2
Cc1nn(C(C)(C)C)c(OC(=O)c2ccc3c(c2)OCO3)c1S(=O)(=O)c1ccccc1	·	1.3
CCc1nnc(NC(=O)CSc2nc3c(c(=O)n2-c2ccccc2OC)SCC3)s1	·	4.7
O=C(c1c(O)c2ccccc2oc1=O)C1CCC1	·	-0.9
CC1CCc2nn(CC(=O)N3CCN(C(=O)c4ccco4)CC3)cc2C1 (stereo not given)	i	0.9
Cc1cccc2sc(NC(=O)CCNS(=O)(=O)c3cccs3)nc12	·	0.8
O=C1CC(=O)N(Cc2cccs2)C(=O)N1	i	-6.0

(more compounds)
SMILES	VCAM-1 up	Proteasome disasm
COc1ccccc1N1CCN(C(=O)c2nn(-c3ccccc3OC)c(=O)c3ccccc23)CC1	·	0.5
O=C(CSc1nnc(CNC(=O)c2cccs2)o1)c1ccc(Cl)cc1	·	-0.5
Cc1cc(C)cc(NC(=O)Cn2ncn3c(cc4ccccc43)c2=O)c1	·	1.1
COc1ccc(Nc2cc(C)nc3ncnn23)c(OC)c1	·	-1.9
Cc1ccc(O)c(-c2cc3ccccc3[nH]2)c1	i	-0.1
CC(=O)Nc1ccc(NS(=O)(=O)c2cc(C)sc2C)cc1	·	1.2
CCOC(=O)CNC(=O)Cn1cnc2sc(C)c(S(=O)(=O)N3CCC(C)CC3)c2c1=O	·	0.9
COc1ccccc1N(CC(=O)NCc1ccccn1)S(C)(=O)=O	i	1.1
CCCOc1ccc2oc(=O)c3c(c2c1)CCCN3C(=O)CN(C)Cc1ccccc1	·	1.1
O=C(NC1CCCc2ccccc21)C1CCN(S(=O)(=O)c2cnc[nH]2)CC1 (stereo not given)	i	4.5
c1ccc2c3nnc4n(c-3nc2c1)CCCS4	i	-1.4
COc1ccc(NC(=O)CSc2nnc(-c3ccncc3)n2CC2CCCO2)c(OC)c1 (stereo not given)	i	-2.0
Cc1ccc2[nH]c(=O)c(C(c3nnnn3CCc3ccccc3)N3CCOCC3)cc2c1 (stereo not given)	i	0.9
O=C(CSc1nnc(CNC(=O)c2ccco2)o1)NC1CCCC1	·	0.6
Cc1ccc(S(=O)(=O)N2CCN(Cc3cc(C(C)C)ccc3O)CC2)cc1	·	0.8
CCn1c(SCC(=O)Nc2ccc(C(=O)OC)cc2)nnc1-c1cccs1	i	2.0
CCOC(=O)Nc1ccc(OC)cc1S(=O)(=O)N1CCCCC1	i	-4.6
O=C(CCCn1c(=O)c2ccccc2n(CC(=O)NCc2ccco2)c1=O)NCc1ccco1	·	2.6
Cc1ccccc1CS(=O)(=O)CCC(=O)NCCCN1CCN(c2ccccc2F)CC1	·	-0.6
O=C1C(C=NCCCn2ccnc2)=C(O)c2ccccc21	i	2.5
CCOC(=O)c1c(NC(=O)OC)sc(C(=O)N(C)C)c1C	i	-2.0
Cc1cccc(NC(=O)C2CCCN2S(=O)(=O)c2cccc3cccnc23)c1 (stereo not given)	·	-0.2
COc1ccc(CCNC(=O)CCn2c(=O)[nH]c3cc(OC)c(OC)cc3c2=O)cc1OC	·	0.0
CCOC(=O)c1cccc(NC(=O)CCS(=O)(=O)c2cccs2)c1	·	2.1
CC(C)CCOc1cccc(C2c3c(oc4ccccc4c3=O)C(=O)N2CCCN2CCOCC2)c1 (stereo not given)	·	2.0
CC(=O)c1cccc(NC(=O)COc2nsnc2N2CCOCC2)c1	·	-0.7
Cc1ccc(CCN2CC(C(=O)NCCCN3CCN(C)CC3)CC2=O)cc1 (stereo not given)	·	1.1
COCCNC(=O)CN(C)S(=O)(=O)c1ccc(Br)cc1	i	-4.3
CCOC(=O)c1ccc(S(=O)(=O)Nc2cc(C(C)(C)C)no2)cc1	i	-3.5
O=C(CN1C(=O)COCC1=O)N1CCOCC1	i	0.3
CCOC(=O)N1CCC(NC(=O)C2CCCN(S(=O)(=O)c3cccnc3)C2)CC1 (stereo not given)	·	-1.5
